VDR inh – vitamin D3 receptor (human) inhibition. P11473. VDR-SRC2-3 peptide fluorescence polarization, 2 h. Potency, µM, inactives show max response, negative = inhibition, most hits filed as inhibitors. 0.93% of 400,000 active; active means well fitted inhibition curve with a large enough effect; inconclusive means small, poorly fitted or top-dose-only effect, or another doubt; inactive means no such curve, though single readings can be large or run the other way; further: series mostly up to about 120 µM
Target sequence (P11473 whole entry, looked up): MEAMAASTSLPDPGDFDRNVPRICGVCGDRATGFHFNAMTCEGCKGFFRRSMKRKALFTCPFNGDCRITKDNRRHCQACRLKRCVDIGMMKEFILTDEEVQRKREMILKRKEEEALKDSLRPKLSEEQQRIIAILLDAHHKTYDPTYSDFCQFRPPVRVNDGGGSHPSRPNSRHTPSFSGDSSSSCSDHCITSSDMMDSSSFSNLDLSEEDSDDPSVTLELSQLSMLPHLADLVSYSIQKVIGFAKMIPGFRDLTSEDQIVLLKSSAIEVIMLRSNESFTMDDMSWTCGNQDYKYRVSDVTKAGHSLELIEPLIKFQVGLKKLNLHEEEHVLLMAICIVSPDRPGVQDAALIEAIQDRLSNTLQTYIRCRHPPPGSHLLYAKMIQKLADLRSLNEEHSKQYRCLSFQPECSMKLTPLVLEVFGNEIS
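FP read-out; VDR + SRC2-3 coactivator peptide; 23 nl compound by pintool; 2 h RT incubation; reagents held at 4 deg C, protected from light.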
Starred values were filed as active, the others as inactive; ? = inconclusive; & = joins results of further samples. On the % scale 0 is the no-effect control and ±100 the full control effect; potency means the concentration at half of the fitted maximal effect. Not all compounds are listed; count on the stated rates, not on these rows.

SMILES	VDR inh
O=C(Cn1ncc2c1-c1ccccc1OC2)Nc1cccc(Cl)c1	-10%
COc1ccc(C(C(=O)NCc2ccccc2)N(Cc2ccc3c(c2)OCO3)C(=O)c2cnccn2)cc1 (stereo not drawn)	22%
CCCCNC(=O)N1CCCN(c2ccc(C#N)cn2)CC1	-4%
Cc1c(S(=O)(=O)Nc2ccc(Br)cc2)c(=O)n(C)c(=O)n1C	?
CC1CCC2(CC1)NC(=O)N(CC(=O)NCc1ccc3c(c1)OCO3)C2=O (stereo not drawn)	-27%
Cc1cc(C(=O)O)n(C(C)(C)C)n1	-1%
COc1cc2c(C(=O)NCc3ccccn3)cn(C)c(=O)c2cc1OC	-13%
CC(=O)OCC(NC(=O)C(COCc1ccccc1)NC(=O)OC(C)(C)C)C1OC(n2cc(C)c(=O)[nH]c2=O)C(OC(C)=O)C1OC(C)=O (stereo not drawn)	-4%
Cc1cc(N2CCCCCC2)nc2ccccc12	-8%
COC(=O)c1ccc2c(=O)n(CCN3CCOCC3)c(SCC(=O)Nc3ccc(C)cc3)nc2c1	-13%
C/C(=N\NC(=O)c1ccc(NS(=O)(=O)c2cccs2)cc1)c1ccc2ccccc2c1	4%
O=C(NN1C(=O)C2C3C=CC(O3)C2C1=O)c1ccncc1 (stereo not drawn)	-8%
O=C(CCCCCl)Nc1c2c(nc3ccccc13)CCC2	3%
Cc1ccc(-n2c(N)c(C(=O)N3CCCCC3)sc2=S)cc1	?
CCOC(=O)N1CCC(N2C(=O)c3ccc(C(=O)NCc4ccc(F)cc4)cc3C2=O)CC1	-10%
O/N=C/c1cn(-c2ccccc2)nn1	11%
C=CCN(c1ccc(C(=O)NCCSc2ccccc2)cc1)S(C)(=O)=O	15%
CCOC(=O)C/C(N)=N/NC(=O)c1ccc(Cl)cc1Cl	8%
N#CC1(Nc2ccc(-c3ccc(Cl)cc3)cc2)CCCC1	-15%
CC(C)(C)NC(=O)CSc1nncn1NCc1cccc2ccccc12	10%
O=C(Nc1ccc(Cl)c(S(=O)(=O)N2CCOCC2)c1)c1cn2ccccc2n1	-14%
CCN(CC)c1ccc(NC(=O)c2ccc(Br)o2)cc1	-7%
CC(C)c1ccc(NC(=O)c2cc(Br)ccc2Br)cc1	-10%
CCc1ccc(OCC(=O)NNC(=O)Cc2c(F)cccc2Cl)cc1	-23%
Cc1ccc(C(=O)NNC(=S)NC(=O)c2ccccc2)cc1	-11%
CCCNC(=O)C(CC)NC(=O)c1cccc([N+](=O)[O-])c1 (stereo not drawn)	-16%
Cc1nc2ccc(S(=O)(=O)NCC(=O)N3CCCC(C)C3)cc2s1 (stereo not drawn)	-5%
Cc1ccc2c(N)c(C(=O)N(c3ccccc3)c3ccccc3)sc2n1	-1%
CC(C)(C)C(=O)NC1(C(F)(F)F)NC(=O)N(c2ccccc2F)C1=O (stereo not drawn)	0%
Cc1ccnc(NC(=O)CSc2ccc3c(c2)OCCO3)c1	-8%
Cc1nnc(NCCc2ccccc2)c2ccccc12	8%
Cc1ccc(O)c(NC(=O)CSc2n[nH]c(C)c2[N+](=O)[O-])c1	21%
CC1CC(C)CN(C(=O)c2ccc(C(=O)c3ccccc3)cc2)C1 (stereo not drawn)	-1%
CC(C)(C)c1ccc(C(=O)NCCc2csc(-c3ccc(Cl)cc3)n2)cc1	11%
O=C(Nc1nnc(-c2cccs2)o1)c1cccc(F)c1	5%
O=C(NCc1ccccc1Br)C1CCCO1 (stereo not drawn)	16%
Cn1c(Cn2c(=O)sc3ccccc32)nnc1SCc1cccnc1	-11%
C[C@H](NC(=O)OC(C)(C)C)c1nnc(SCC(=O)c2ccc(Cl)cc2)o1	13%
O=C(Nc1nc(-c2cccnc2)cs1)c1ccccc1Cl	-14%
C/C(=N\N=C\c1ccc(N(C)C)cc1)c1cccc([N+](=O)[O-])c1	-7%
CCOC(=O)c1nn(-c2ccc(OCC)cc2)c2nc(CC(C)C)c(C#N)c(=O)n12	-7%
COc1ccc(C(=O)NCC(=O)N2CCN(C(=O)c3ccco3)CC2)cc1[N+](=O)[O-]	-4%
CCc1nnc(NS(=O)(=O)c2ccc(NC(=O)C(c3ccccc3)c3ccccc3)cc2)s1	0%
COc1ccccc1-c1c(C)oc2c(CN3CCCCC3C)c(O)ccc2c1=O (stereo not drawn)	-8%
COc1ccc(C(=O)COC(=O)CCN2C(=O)C3C4CC(C(Br)C4Br)C3C2=O)cc1 (stereo not drawn)	-4%
O=c1c(-c2cc(F)cc(F)c2)nc2cnc(N3CCOCC3)nc2n1Cc1cccs1	-2%
CC(OC(=O)c1ccco1)C(=O)NC1CCCC1 (stereo not drawn)	-10%
CC1(NC(=O)CCNC(=O)c2ccc(C(C)(C)C)cc2)CCS(=O)(=O)C1 (stereo not drawn)	-12%
O=C(CSc1nnc(-c2ccc(Cl)cc2)n1-c1ccc(Cl)cc1)N/N=C/c1ccco1	2%
CCN(CC)S(=O)(=O)c1cc(NS(=O)(=O)c2cccc(Cl)c2Cl)ccc1C	3%
CCN(Cc1ccc(OC)c(F)c1)C(C)C(=O)Nc1ccc(S(=O)(=O)N2CCCC2)cc1 (stereo not drawn)	-6%
C/C=C/c1ccc(OCCN2C(=O)NC(C)(C)C2=O)c(OC)c1	-5%
CC(C)CNc1nc(Oc2ccc(=O)[nH]n2)nc(N(C)C)n1	8%
Brc1cccc(-c2nnc(SCc3ccon3)n2-c2ccccc2)c1	-6%
Cc1c(NC(=O)C(C)OC(=O)/C=C/c2ccccc2)c(=O)n(-c2ccccc2)n1C (stereo not drawn)	-1%
CCOC(=O)CNc1nc2ccccc2n2c(C)nnc12	-10%&4%
CCOc1ccc(NC(=O)Nc2ccc3c(c2)N(C)C(=O)CS3)cc1	12%
S=c1[nH]nc(Cc2cccs2)n1-c1ccccc1Cl	-11%
O=C(NCCCO)c1ccc(CSc2nc3ccccc3[nH]2)cc1	9%
CCc1noc(C)c1C(=O)Nc1sc(C(=O)N(C)C)c(C)c1C(=O)OC	5%
Additional entries:
SMILES	VDR inh
O=C(CSc1nnnn1C1CCCCC1)NCc1ccccc1	-7%
CCOc1ccc(/C(CC)=N/NC(=O)C2(C)CC2(Br)Br)cc1 (stereo not drawn)	-14%
COc1ccc(OC)c(NC(=O)CCn2cccc2)c1	-6%
O=C(COC(=O)CCCN1C(=O)c2ccccc2C1=O)Nc1cc(Cl)cc(Cl)c1	-4%
COc1cccc(C(=O)NCCS(=O)(=O)NCCc2ccccc2)c1	-11%
O=C(NCc1ccccc1)N(Cc1cc2cc3c(cc2[nH]c1=O)OCCO3)CC1CCCO1 (stereo not drawn)	1%
O=C(Cn1cnnn1)OCC(=O)c1ccc(Cl)s1	1%
CCOc1ccc(NC2=C(Cl)C(=O)N(Cc3ccccc3)C2=O)cc1	-8%
Cn1c(=O)n(C)c2cc(S(=O)(=O)Nc3cc(Cl)ccc3O)ccc21	0%
O=Cc1coc2ccc3ccccc3c2c1=O	?
CCOC(=O)c1c(C)[nH]c(C(=O)CN2CCN(CC)CC2)c1C	-3%
CCS(=O)(=O)CCSc1nc(-c2ccc(Br)cc2)cc(-c2ccccc2)c1C#N	-9%
O=C(Cn1cnc2ccccc2c1=O)N1CCN(Cc2ccc3c(c2)OCO3)CC1	-11%
Cc1cccc(C)c1Nc1nnc(SC/C(O)=C(\C#N)c2nc3ccccc3[nH]2)s1	8%
COc1ccc(-n2cccc2C=O)cc1OC	-7%
Cc1cccc(OCC(=O)Nc2ccc3c(c2)nc(CCN2CCC(C)CC2)n3C)c1	-2%
CN(C)C(=O)Nc1ccc(F)cc1F	11%
CC(=O)Nc1ccc2c(c1)nc(CN1CCCC1)n2C	-13%
CC(C(=O)NCc1ccc(Cl)cc1)n1ccc2cc(S(=O)(=O)N3CCCCCC3)ccc21 (stereo not drawn)	2%
CCOC(=O)c1cc(-c2ccc(F)cc2)n(CCC(=O)Nc2ccccc2OC)c1C	-7%

The last two entries of the section above are carried over, then new ones follow.
SMILES	VDR inh
CC(C(=O)NCc1ccc(Cl)cc1)n1ccc2cc(S(=O)(=O)N3CCCCCC3)ccc21 (stereo not drawn)	2%
CCOC(=O)c1cc(-c2ccc(F)cc2)n(CCC(=O)Nc2ccccc2OC)c1C	-7%
Nc1nc(SCC(=O)c2ccc(Br)s2)n[nH]1	5%
CC(C)SCc1nc2ccccc2[nH]1	12%
COc1ccc(C(CNC(=O)c2cccc(S(=O)(=O)NCc3ccccc3)c2)N2CCOCC2)cc1 (stereo not drawn)	-17%
COc1ccc2[nH]c(=O)c(CN(Cc3cccnc3)C(=O)Nc3ccccc3)cc2c1	-1%
COc1cc(NC(=O)Cn2c(=O)n(CC3CCC(C(=O)NCCc4ccccc4)CC3)c(=O)c3ccccc32)cc(OC)c1 (stereo not drawn)	7%
CSc1cccc(NC(=O)CSc2ccc(C)cc2)c1	3%
CC(C)Sc1ncc(Cl)c(C(=O)Nc2ccc(S(=O)(=O)Nc3ncccn3)cc2)n1	-4%
COc1ccc(N2CCN(c3nc4ccc(C)cn4c(=O)c3C=O)CC2)cc1	9%
COc1ccc(C(CC(=O)O)NS(=O)(=O)c2ccc3c(c2)NC(=O)CO3)cc1 (stereo not drawn)	9%
CC12CCC(=O)N1C(C(=O)Nc1ccccc1N1CCCC1)CS2 (stereo not drawn)	8%
Cc1cc(C)n2c(SCc3ccc(Cl)cc3Cl)nnc2n1	10%
CCOC(=O)C1(CCc2ccccc2)CCN(C(=O)C2CCCO2)CC1 (stereo not drawn)	-7%
O=C(O)c1ccccc1C=NNc1ccccn1	-5%
NC(=O)C1CCN(C(=O)CC2C(=O)NCCN2Cc2cccc(Oc3ccccc3)c2)CC1 (stereo not drawn)	-18%
Cc1ccc(C)c(OCC(=O)Nc2ccncc2)c1	-14%
CC1CCC(CN2CCN=C2Nc2ccccc2)CC1 (stereo not drawn)	2%
COc1ccccc1N1CCN(C(=O)CCNS(=O)(=O)c2cc(Br)cnc2N)CC1	3%
CCOc1ccc(C(=O)Nc2cc(NC(=O)c3ccco3)ccc2OC)cc1Br	5%
Cc1cc(N2CCC(C)CC2)c(F)cc1[N+](=O)[O-]	6%
Cc1ccc(-n2c([S-])c(C(=O)NC(C)c3ccccc3)[n+]3ccccc23)cc1 (stereo not drawn)	1%
CN1C(=O)C(=O)/C(=C(/O)c2ccccc2)C1c1ccc([N+](=O)[O-])cc1 (stereo not drawn)	-20%
Cc1ccc(C(=O)NC2(C(F)(F)F)NC(=O)N(c3ccc(Cl)cc3)C2=O)cc1 (stereo not drawn)	-22%
COC(=O)c1ccc2nc(NC(=O)CSCC(=O)OCC(=O)c3ccccc3)sc2c1	-26%
CC(C)(C)c1csc(NC(=O)C2COc3ccccc3O2)n1 (stereo not drawn)	6%
COC(c1ccccc1)c1c(-c2ccccc2)nn(C)c1Cl (stereo not drawn)	-7%
CCCCn1c(N(CCOC(C)=O)C(C)=O)nc2ccccc21	7%
CN(C)C(=O)c1ccc(N=Nc2c(O)c3ccccc3[nH]c2=O)cc1	-7%
CN(C)Cc1cc(O)c(CN(C)C)cc1O	?
COc1cc(/C=N/NC(=O)c2cc(-c3ccccc3Cl)nc3ccccc23)cc(OC)c1O	12%
CCC(Sc1nc2ccccc2c2nc(CCc3c(C)n[nH]c3C)nn12)C(=O)Nc1ccccc1F (stereo not drawn)	9%
O=C(CN(C(=O)CCC(=O)Nc1nccs1)c1ccccc1F)NCc1ccc(F)cc1	-2%
C[C@@H]1CN([C@@H](C)CO)C(=O)c2cc(NC(=O)CCN3CCOCC3)ccc2O[C@@H]1CN(C)C(=O)Nc1ccccc1	-6%
COc1ccc(C(=O)Nn2c(SCC(=O)NC3CCCCC3)nc3ccccc3c2=O)cc1	-2%
Cn1ccc(-c2cc(C(=O)O)c3ccccc3n2)n1	-2%
N#Cc1c2ccc(OCC(N)=O)cc2n2ccccc12	-25%
Cc1cc2nnc(SC3CCOC3=O)n2c2ccccc12 (stereo not drawn)	7%
COc1ccccc1NC(=O)Cn1c(=O)n(CCc2ccccc2)c(=O)c2sc3ccccc3c21	9%
COc1ccc(C(=O)OCCNC(=O)c2ccncc2)cc1OC	-11%
COc1ccccc1-c1noc(-c2ccccc2C(=O)N2CCOCC2)n1	20%
NS(=O)(=O)c1ccc(CNC(=O)c2csc3c2CCCC3)cc1	-8%
CCCOc1cccc(C(=O)Nc2ccc(-c3nc4ccccc4s3)c(Cl)c2)c1	9%
O=C(Nc1ccc(-c2cn3c(n2)SCC3)cc1)c1ccc2c(c1)OCO2	16%
Cc1ccc(C)c(CN2C(=O)CSc3ccc(C(=O)NCc4ccc(F)cc4)cc32)c1	-17%

In the list so far, 15 have two or more sulfur atoms.
SMILES	VDR inh
C/C(=N\NC(=O)c1ccc(NS(=O)(=O)c2cccs2)cc1)c1ccc2ccccc2c1	4%
Cc1ccc(-n2c(N)c(C(=O)N3CCCCC3)sc2=S)cc1	?
C=CCN(c1ccc(C(=O)NCCSc2ccccc2)cc1)S(C)(=O)=O	15%
Cc1nc2ccc(S(=O)(=O)NCC(=O)N3CCCC(C)C3)cc2s1 (stereo not drawn)	-5%
Cn1c(Cn2c(=O)sc3ccccc32)nnc1SCc1cccnc1	-11%
CCc1nnc(NS(=O)(=O)c2ccc(NC(=O)C(c3ccccc3)c3ccccc3)cc2)s1	0%
CCN(CC)S(=O)(=O)c1cc(NS(=O)(=O)c2cccc(Cl)c2Cl)ccc1C	3%
S=c1[nH]nc(Cc2cccs2)n1-c1ccccc1Cl	-11%
CCS(=O)(=O)CCSc1nc(-c2ccc(Br)cc2)cc(-c2ccccc2)c1C#N	-9%
Cc1cccc(C)c1Nc1nnc(SC/C(O)=C(\C#N)c2nc3ccccc3[nH]2)s1	8%
Nc1nc(SCC(=O)c2ccc(Br)s2)n[nH]1	5%
CSc1cccc(NC(=O)CSc2ccc(C)cc2)c1	3%
CC(C)Sc1ncc(Cl)c(C(=O)Nc2ccc(S(=O)(=O)Nc3ncccn3)cc2)n1	-4%
COC(=O)c1ccc2nc(NC(=O)CSCC(=O)OCC(=O)c3ccccc3)sc2c1	-26%
NS(=O)(=O)c1ccc(CNC(=O)c2csc3c2CCCC3)cc1	-8%

Screening results: PubChem BioAssay, National Center for Advancing Translational Sciences (NCATS)
